Screens: PubChem BioAssay, National Center for Advancing Translational Sciences (NCATS)
Vaccinia Venus: qHTS for Stage-Specific Inhibitors of Vaccinia Orthopoxvirus: Venus Reporter Primary qHTS. Vaccinia virus Venus reporter expression, fluorescence. AID 720580, 2013. Potency, µM (highest dose often 36.5 µM), inactives show at the highest dose activity change, negative = inhibition, hits mostly inhibitors. 0.46% of 330,000 active; active means well fitted inhibition curve with a large enough effect; inconclusive means small, poorly fitted or top-dose-only effect; inactive means no such curve, though single readings can be large or run the other way; tested in A549 cells; note: nearly all actives have a fitted effect of over 30% in size; inactives centre near -10
Vaccinia mCherry: qHTS for Stage-Specific Inhibitors of Vaccinia Orthopoxvirus: mCherry Reporter Primary qHTS. Vaccinia virus mCherry reporter infection, fluorescence; about a quarter of the inactives have no number. Potency, µM (highest dose often 36.5 µM), inactives show top-dose activity change, negative = inhibition, actives largely listed as inhibitors. 0.63% of 310,000 active. AID 720579, 2013; active = well fitted inhibition curve with a large enough effect; inconclusive = small, poorly fitted or top-dose-only effect; inactive = no such curve, though single readings can be large or run the other way; tested in A549 cells; note: nearly all actives have a fitted effect of over 35% in size; inactives centre near -10
The depositor's hits bear a star; i = inactive; ? = inconclusive; · = not tested or not shown; & = joins results of further samples; [ ] = dose if it differs, or a comment. % is set by controls: 0 for no effect and ±100 for the full control effect; potency is the fitted concentration of half-maximal effect.

smiles,Vaccinia Venus,Vaccinia mCherry
Cc1ccc(C(=O)N2CCN(c3ncc(C(F)(F)F)cc3Cl)CC2)s1,-10%,-24%
CCCc1nc2sc3c(c2c(=O)n1NC(=O)c1ccco1)CC(C)(C)OC3,-21%,i
C[C@H](OC(=O)N1CCN(C(c2ccccc2)c2ccccc2)CC1)[C@@H]1O[C@@]2(C)CCC[C@H]1O2,-14%,-28%
COC(=O)[C@@]12CCCCN1[C@H](c1ccc(-c3ccccc3)cc1)[C@H]1C(=O)N(C)C(=O)[C@H]12,-29%,?
COc1ccc(C(=O)Nc2ccccc2-c2nc(-c3ccc(OC)cc3)no2)cc1,-3%,-6%
COC(=O)c1nn(-c2ccc(-c3ccccc3)cc2)cc1O,?,i
O=S(=O)(NCCc1csc2nc(-c3ccccc3)nn12)c1ccc(Oc2ccccc2)cc1,-26%,-22%
O=C(COC(=O)c1ccc(Cl)nc1)Nc1ccc(N2CCCCC2)cc1,1%,-11%
Cc1occc1-c1nnc(SCCCC(=O)c2ccc(F)cc2)n1C,-16%,·
COc1ccc(C(=O)OC(C)CN2CCOCC2)cc1OC (stereo not drawn),-3%,·

Carrying on:
smiles,Vaccinia Venus,Vaccinia mCherry
CN1CCN(CCC(=O)Nc2ccccc2)CC1,-7%,i
N#Cc1ccsc1NC(=O)COC(=O)c1ccc(NC(N)=O)cc1,34%[activator],26%
CC1(C(=O)NS(=O)(=O)c2ccccc2)CCN1C(=O)c1ccccc1 (stereo not drawn),-11%,i
OC[C@@H]1CN(Cc2ccc(-c3ccccc3)cc2)C[C@H](n2cnc3c(N4CCOCC4)ncnc32)O1,-14%,i
CC(=O)c1ccc(Nc2nc(C)cc(C)n2)cc1,-1%,-18%
Cc1cccc(C)c1NC(=O)CNCC(=O)Nc1c(C)cccc1C,6%,-5%
COc1ccc(C(=O)c2cn(CC(=O)Nc3cc(C)ccc3C)c3nc(C)ccc3c2=O)cc1,-2%,-11%
CC(Oc1ccc(-c2ccccc2)c(F)c1)c1ccn(S(=O)(=O)c2cccc3ccccc23)n1 (stereo not drawn),-2%,-12%
COc1cccc2oc3ccc(C#CC4(N)CCCCC4)cc3c(=O)c12,?,?
O=[N+]([O-])c1ccc(Cl)c(-c2ccc(/C=N/c3c(-c4ccco4)nc4ccccn34)o2)c1,-5%,-10%

Next results follow.
smiles,Vaccinia Venus,Vaccinia mCherry
COCCN(C(=O)c1c(C)noc1C)c1c(N)n(CC(C)C)c(=O)[nH]c1=O,-3%,-14%
CC1(C)Cc2c(cnn2-c2ccc(F)cc2)C(NC(=O)CCN2CCCCC2=O)C1 (stereo not drawn),-7%,i
CCc1ccc(NC(=O)Cn2c(=O)n(CCCC(=O)NCc3ccco3)c(=O)c3ccccc32)cc1,-10%,·
COc1cc(C(=O)Nc2ccc(C(C)=O)cc2)c(Br)c(OC)c1OC,-2%,-10%
CCCn1c(-c2cccc(F)c2)nc2c1c(=O)[nH]c(=O)n2Cc1ccccc1,-7%,i
COc1ccc(C2C(C(=O)c3ccco3)=C(O)C(=O)N2CCc2ccccc2)cc1OC (stereo not drawn),-6%,-11%
O=C(NN1C(=O)c2ccc3c4c(ccc(c24)C1=O)CC3)c1ccc(Br)cc1,-5%,-9%
CCOC(=O)c1ccc(NCC(O)COc2ccccc2)cc1 (stereo not drawn),-26%,·
O=C(CNC(=O)c1ccccc1)NCC(=O)OCC(=O)c1cccc2ccccc12,0%,-17%
COc1cccc(C2c3[nH]c4ccccc4c3C[C@H]3C(=O)N(c4ccccc4C(=O)N4CCC[C@H]4C(=O)O)C(=O)N23)c1 (stereo partly drawn),5%,7%

Other records follow:
smiles,Vaccinia Venus,Vaccinia mCherry
CCC(=O)Nc1ccc2nc3c(=O)[nH]c(=S)[nH]c3nc2c1,-14%,i
CCOC(=O)c1ccc(Nc2nc(-c3cccnc3)nc3ccccc23)cc1,?,·
COCc1ccccc1Cn1cnc2c1c(=O)n(C)c(=O)n2C,-9%,-12%
COc1ccc(OC)c(NC(=O)/C=C/c2ccccc2[N+](=O)[O-])c1,-19%,-6%
O=c1ccn(Cc2ccccc2)c2ccccc12,-12%,i
COc1ccccc1N(CC(=O)NC1CCCC1)C(=O)c1oc(C(C)(C)C)cc1C,-21%,i
Cc1cc(OCC(=O)NCc2ccccn2)cc(C)c1Br,-10%,i
O=C(NCc1ccco1)c1cccc(S(=O)(=O)N2CCCCC2)c1,8%,·
CCOc1cccc(=O)c2c(C)n(CC(=O)c3ccccc3)c(C)c12,-11%,2%
CCCCOc1ccc(C(=O)N2CCN(CCc3ccncc3)CC2)cc1,-4%,-11%

Some of the entries so far, as labelled records.
SMILES: O=c1ccn(Cc2ccccc2)c2ccccc12
  Vaccinia Venus: -12%
  Vaccinia mCherry: i

SMILES: CCCCOc1ccc(C(=O)N2CCN(CCc3ccncc3)CC2)cc1
  Vaccinia Venus: -4%
  Vaccinia mCherry: -11%

SMILES: O=C(NCc1ccco1)c1cccc(S(=O)(=O)N2CCCCC2)c1
  Vaccinia Venus: 8%
  Vaccinia mCherry: ·

The list goes on:
smiles,Vaccinia Venus,Vaccinia mCherry
COc1ccc(OC)c(CNC(=O)CCc2nc(-c3cccs3)no2)c1,-4%,-12%
O=C(NC1CC1)C1CCN(C2CCN(C(=O)c3c(F)cccc3Cl)CC2)CC1,-12%,-11%
COc1ccc(C(=O)N2CCN(CC(=O)N3CCOCC3)CC2)cc1,-16%,i
COc1ccc(CCNC(=O)c2n[nH]c3ccccc23)cc1,-11%,i
COc1ccc(-c2cc3nc(-c4ccc(C)cc4)cc(C(F)(F)F)n3n2)cc1,-7%,-6%
COc1ccccc1C(=O)COC(=O)c1ccccc1O,-3%,i
CCOc1ccc(/C(O)=C2\C(=O)C(=O)N(c3cc(C)on3)C2c2ccccc2OC)cc1 (stereo not drawn),-12%,-10%
CS(=O)(=O)c1ccccc1C(=O)Nc1nc2ccccc2[nH]1,-2%,i
C[C@@H]1CN([C@H](C)CO)C(=O)CCCn2nncc2CO[C@H]1CN(C)S(=O)(=O)c1ccc(-n2cccn2)cc1,-11%,i
CC(C)n1nnnc1C(c1ccc(F)cc1)N1CCN(C2CCCC2)CC1 (stereo not drawn),-8%,-4%

Further structures.
smiles,Vaccinia Venus,Vaccinia mCherry
CCOC(=O)c1c(NC(=O)CS(=O)(=O)c2ccc(Cl)cc2)sc2c1CCCC2,-3%,-10%
COC(=O)C1(C)CCCC2(C)c3cc(OC)ccc3C(=O)C(Br)C12 (stereo not drawn),?,0%
Cn1cc(C(=O)O)c(-c2ccc3c(c2)OCCCO3)n1,-10%,2%
COc1cnn(-c2ccc(F)cc2)c(=O)c1Br,-12%,i
CN(C)S(=O)(=O)c1cccc(NC(=O)COC(=O)c2cc3ccccc3oc2=O)c1,-17%,i
CCCCCCCN1CCC(=O)N(CCO)CC1,-10%&-5%,-9%
COc1cccc(CN(C)C(=O)C2CCCN(C(=O)c3ccc(Cl)cc3)C2)c1 (stereo not drawn),-15%,i
CCOC(=O)C1(C)C=C(Nc2ccc(C(N)=O)cc2)C(=O)N1c1ccccc1 (stereo not drawn),2%,-11%
COc1cccc(NC(=O)CN(C)CC(=O)Nc2ccc(Cl)cc2[N+](=O)[O-])c1,-10%,-12%
Nc1nnc(SCc2nnc(-c3ccccc3)o2)s1,-9%,i

(more compounds)
smiles,Vaccinia Venus,Vaccinia mCherry
Cc1nc2c(Br)c(C)nn2c2c1CCC2,-10%,-7%
O=C(CNS(=O)(=O)c1cccs1)N1CCN(c2ccccc2Cl)CC1,-13%,-18%
Cc1ccc(C(=O)Nc2ccccc2Sc2ccccc2)cc1,-9%,i
N/C(Cc1ccc([N+](=O)[O-])cc1)=N\OC(=O)c1ccc(Br)cc1,-5%,-6%
CC(C)c1ccc(NC2CCCN(C(=O)CCc3cn[nH]c3)C2)cc1 (stereo not drawn),-12%,-14%
O=C(CN1CCN(c2ccccc2F)CC1)c1c[nH]c2ccccc12,-16%,-23%
Cn1nccc1C(=O)N1CCN(S(=O)(=O)c2ccc(Br)s2)CC1,-13%,i
CCCCNC(=O)c1nc(C2CCN(S(=O)(=O)c3ccc(C(F)(F)F)cc3)CC2)oc1-c1ccccc1,0%,i
CCCOc1ccc(-c2cccc(NS(=O)(=O)c3ccc(CC)cc3)c2)nn1,-14%,-9%
OC(COc1ccc2ccccc2c1)CN1CCOCC1 (stereo not drawn),-9%&-24%,-21%&-4%

Carrying on:
smiles,Vaccinia Venus,Vaccinia mCherry
C[C@H]1CN([C@@H](C)CO)C(=O)c2cc(NC(=O)NC3CCCCC3)ccc2O[C@H]1CN(C)C(=O)Nc1ccc(C(F)(F)F)cc1,-25%,-7%
CC(=O)c1ccc(S(=O)(=O)N(C)CCCC(=O)NCc2ccc3c(c2)OCO3)cc1,-9%,i
Cc1cc(Oc2cc(NN3CCCCC3)c([N+](=O)[O-])cc2[N+](=O)[O-])c(C(=O)c2ccccc2)cc1Cl,75%[activator],-1%
COc1ccc(CNC(=O)CNS(=O)(=O)c2cccc(C#N)c2)cc1OC,-4%,-2%
CC(C)(C)OC(=O)[C@H](CCCCN)NC(=O)c1[nH]cnc1C(=O)N[C@@H](Cc1ccccc1)C(=O)OCc1ccccc1,-22%,i
N#Cc1cc2c(nc1SCC(=O)Nc1ccc(F)c(Cl)c1)C1CCN2CC1,-14%,-19%
COc1cc(-c2cc(=O)c3c(O)c(OC)c(OC)cc3o2)cc(OC)c1O,?,?
CCOc1ccc(CSC(CC(=O)O)C(=O)O)cc1 (stereo not drawn),-3%,-17%[1.46 µM]
COc1cccc(C(=O)N2CC(=O)Nc3ccc(C)cc3C2c2ccc(F)cc2)c1OC (stereo not drawn),-12%,-15%
COCCN(CCOC)c1cc(C)c(C#N)c2nc3ccccc3n12,-4%,·

Additional records.
smiles,Vaccinia Venus,Vaccinia mCherry
Cc1cc(C)n(C(=O)c2ccccc2[N+](=O)[O-])n1,-5%,-6%
Cc1ccc(C(=O)Nc2ccccc2)cc1S(=O)(=O)N1CCCC1,?,?
Cc1ccnc2nc(C(=O)OCC(=O)Nc3ccccc3C(C)(C)C)nn12,-6%,i
Cc1ccc2c(c1)C(c1ccncc1)=NNC(c1ccccc1)=N2,-8%,0%
COC(=O)Cn1ncc(N2C3CC(CC(C)(C)C3)C2C)c(Cl)c1=O (stereo not drawn),-14%,-3%
CC(=O)N1CCN(S(=O)(=O)c2cccc(C(=O)Nc3ccccc3N3CCCC3)c2)CC1,-8%,-4%
O=C(CN1C(=O)C2CCCCC2C1=O)NC1CCCc2ccccc21 (stereo not drawn),-3%,i
Cc1ccc(CNC(=O)C(=O)NCC(c2cccs2)S(=O)(=O)c2cccs2)cc1 (stereo not drawn),-13%,-20%
Cc1cc(/C=N/NC(=O)c2ccoc2C)cc(C)c1O,-6%,-2%
CCOc1[nH]n(-c2ccc(Cl)cc2)c(=O)c1C=Nc1ccc(OC)cc1,-10%,-15%

(continued)
smiles,Vaccinia Venus,Vaccinia mCherry
CCCn1cnc2c(SCc3ccccc3F)nc(N)nc21,-7%,i
CCCN(CCC)S(=O)(=O)c1ccc(C(=O)Nc2ccc(S(=O)(=O)Nc3nnc(CC)s3)cc2)cc1,-13%,i
CCC(C(=O)O)n1cnc2scc(-c3ccc(C)c(C)c3)c2c1=O (stereo not drawn),-16%,-11%
O=c1[nH]c2ccccc2nc1-c1nnnn1C1CCCC1,0%,12%
CC1=C(C(=O)N2CCN(c3ccccc3)CC2)C2(CCCCC2)OC1=O,-17%,-24%
COc1ccccc1C(C(=O)NC1CCCCC1)N(C(=O)c1csnn1)C1CC1 (stereo not drawn),-16%,-18%
O=C(O)c1cccc(NS(=O)(=O)c2ccc3c(c2)OCCCO3)c1,-17%,-13%
COc1cccc2oc3cc(C#CC4(O)CCCCC4)ccc3c(=O)c12,?,-23%
CCC(C)(C)NC(=O)C(c1ccc(OC)cc1)N(Cc1cccs1)C(=O)CCC(=O)Nc1cc(C)on1 (stereo not drawn),-26%,?
CCC(=O)Nc1nonc1-c1nc2ccccc2n1N(C(=O)CC)C(=O)CC,-16%,i

Other entries
smiles,Vaccinia Venus,Vaccinia mCherry
NNC(=S)NC1CCCCC1,-9%,i
CC(C)CNC(=O)c1cccc(NC(=O)COc2ccc([N+](=O)[O-])cc2)c1,-16%,0%
COc1cccc(NC(=O)Cc2nnc(SCC(=O)NC3=NCCS3)n2C)c1,-2%,-20%
CCCN(CCC)CCNC(=O)CN1C(=O)COc2ccc(S(=O)(=O)N3CCC(C)CC3)cc21,-7%,-17%
Cn1c(SCC(=O)N/N=C/C=C/c2ccccc2[N+](=O)[O-])nc2ccccc21,-11%,-23%
CCOC(=O)c1cc2c(=O)n3ccccc3nc2n(CC2CCCO2)c1=NC(=O)/C=C/c1ccccc1 (stereo not drawn),-15%,-21%
O=C(c1ccc(F)cc1)N1CCN(Cc2ccccc2Br)CC1,-19%,i
CCN(CC)CCOC(=O)c1cc2cc(COC)ccc2o1,-7%,·
Cc1cc(C)c(C#N)c(SCc2cn3ccccc3n2)n1,-21%,-6%

The order is random; overall some 0.86% were active at least once.
